miR-21 FLuc: raises the signal of a miR-21 reporter; HeLa miR-21 FLuc reporter, luciferase, 48 h; Potency, µM (highest dose often 38.3 µM), for the others: at the highest dose reporter change, positive = more light; 340,000 tested, under 10 active; AID 2288; active = well fitted rising curve with a large enough effect; inconclusive = small, poorly fitted or top-dose-only effect; inactive = no such curve, though single readings can be large or run the other way;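 also: % of control where 0% means no effect; miR-21 action dims this reporter so a rising signal means less miR-21 action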
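Using DMEM plus 10% FBS, HeLa miR-21-FLuc cells are incubated with test compounds (final up to about 40uM) for 48 hours; firefly luciferase signal is then imaged following reagent-mediated lysis.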
* marks the source's active call; other numbers are inactive results; ? = inconclusive.

no.	compound	miR-21 FLuc
1	O=C(CSc1nc2ccccc2nc1Cc1ccccc1)N1CCN(c2ccccc2)CC1	-1%
2	CCOc1ccc(OCC)c(NS(=O)(=O)c2cc(Br)cc3c2N(C(C)=O)C(C)C3)c1 (stereo not given)	6%
3	CC(=O)Nc1ccc(NC(=O)CC2Sc3ccccc3NC2=O)cc1 (stereo not given)	-5%
4	Cc1cccc(CNC(=O)Cc2ccc(NC(=O)N3CCCCc4ccccc43)cc2)c1	-1%
5	COc1cccc(NC(=O)Cn2c(=O)n(Cc3ccc(C(=O)NCc4ccc5c(c4)OCO5)cc3)c(=O)c3ccccc32)c1	-2%
6	COc1ccc(S(=O)(=O)c2cc3cc(C(C)(C)C)cc(O)c3oc2=O)cc1	?
7	CCc1ccc(-c2nn(CC(=O)NC3CCCCC3)c3c2cnc2ccc(F)cc23)cc1	29%
8	Cc1cccc(N2CCN(Cc3nnc(-c4ccc5c(c4)OCO5)o3)CC2)c1C	-1%
9	Cc1ccc(-c2nc3ccc(Cl)cn3c2Nc2ccccc2C)s1	-30%
10	Cc1ccc(C)c(N2CCN(C(=O)CN3CCSc4ccccc43)CC2)c1	-1%
11	Cc1ccc(C(=O)Nc2ccc(Br)cc2)cc1S(=O)(=O)N1CCOCC1	11%
12	CCCCOC(=O)c1cccc(NC(=O)/C=C/c2ccccc2Cl)c1	?
13	CC(NC(=O)c1sc2ncccc2c1-n1cccc1)c1ccccc1 (stereo not given)	0%
14	O=C(O)COc1ccccc1C1Nc2ccccc2-c2nnc(SCc3ccc(Cl)cc3)nc2O1 (stereo not given)	2%
15	CCn1c(=O)n(-c2ccc(F)cc2)c(=O)c2sc3ccccc3c21	-6%
16	CC(=O)N1CCC(N(Cc2ccco2)C(=O)Nc2ccc(C)c(Cl)c2)CC1	-5%
17	COC(=O)c1ccccc1NC(=O)c1oc2ccc3c(c2c1C)C(=O)CC(C)(C)O3	-8%
18	COc1ccc2c(c1)c(CC(=O)Nc1cccc(F)c1C)c(C)n2C(=O)c1ccc(Cl)cc1	-8%
19	COc1ccccc1NC(=O)CSc1nc(O)c(C/C=C/c2ccccc2)c(=O)[nH]1	2%
20	COc1cc(Cl)c(NC(=O)c2cc(S(=O)(=O)N3CCCCC3)c[nH]2)c(OC)c1	-4%
21	CCc1ccc(C(=O)c2cn(CC(=O)Nc3cccc(OC)c3)c3cc4c(cc3c2=O)OCO4)cc1	11%
22	CCc1nn2c(=O)cc(COC(=O)COc3ccc(OC)cc3)nc2s1	0%
23	CCCNC(=O)Cn1nc(-c2ccc(C)c(C)c2)c2cnc3ccc(F)cc3c21	-28%
24	CCOC(=O)c1cc(S(=O)(=O)Nc2cc(C)c(Cl)cc2OC)[nH]n1	-5%
25	Cc1ccc(-n2c(-c3cccc(C)c3)nc3c(cnn3-c3ccccc3)c2=O)cc1	-30%
26	O=c1c(N2CCN(c3cccc(Cl)c3)CC2)csc2ccc(Cl)cc12	22%
27	CSc1cccc(N2C(=O)N(CC(=O)NCc3ccccc3Cl)c3ccccc3S2(=O)=O)c1	3%
28	Cc1ccc(CNC(=O)CCc2c(C)nc3c(-c4ccc(F)cc4)c(C)nn3c2C)cc1	2%
29	CC1=C(C(=O)Nc2ccc(C)cc2C)C(c2ccccc2[N+](=O)[O-])n2ncc(C(=O)Nc3ccccc3)c2N1 (stereo not given)	-12%
30	CCN1CCC(N(Cc2ccc3c(c2)OCO3)C(=O)Nc2cc(Cl)ccc2C(=O)OC)CC1	16%
31	CC(C)(C)C(=O)Nc1ccc2nc(SCC(=O)N3CCCC3)sc2c1	-7%
32	COc1cccc(-c2cc(C(=O)Nc3ccc(Br)c(C)c3)[nH]n2)c1	-23%
33	Cc1cccc(C(=O)Nc2ccc(N3CCN(c4ccc(F)cc4)CC3)c(C(=O)O)c2)c1	1%
34	CCOC(=O)c1c(-c2ccccc2)csc1NC(=O)c1cc(=O)c2ccc(C)cc2o1	1%
35	CCOc1ccccc1NC(=O)c1c(NCc2ccc(C)o2)sc2c1CCC(C)C2 (stereo not given)	-2%
36	CCc1ccc(CNC(=O)CN2C(=O)c3cccnc3Oc3ccc(Cl)cc32)cc1	14%
37	CCN1CCN(CCCNC(=O)c2cc3c(=O)n(CC)c4ccccc4c3s2)CC1	-28%
38	COC(=O)c1ccc2c(C(C)(C)O)c(C(C)(C)O)[nH]c2c1	-29%
39	CC(Sc1oc(-c2ccco2)nc1S(=O)(=O)c1ccc(Br)cc1)c1ccccc1 (stereo not given)	16%
40	COc1ccccc1NC(=O)N1CC(=O)Nc2sc3c(c2C1c1ccccc1)CCCC3 (stereo not given)	-4%
41	CCOc1ccc(NC(=O)Cn2cc(C(=O)c3ccc(CC)cc3)c(=O)c3cc4c(cc32)OCO4)cc1	10%
42	CCC(Sc1nc2n[nH]c(C)c2c(=N)n1-c1ccccc1Cl)C(=O)N(CC)CC (stereo not given)	-26%
43	CC(=O)c1ccc(NC(=O)C2CCN(S(=O)(=O)c3ccc4[nH]c5c(c4c3)CCCCC5)CC2)cc1	-9%
44	COc1ccc(-c2cc(-c3ccccc3)nc(SCC(=O)CC(=O)OC(C)C)c2C#N)cc1	24%
45	CCCOc1ccc(Nc2nc(SC)ncc2C(=O)OCC)cc1	-12%
46	COc1ccc(N2CC(NC(=O)COc3cccc(C)c3)CC2=O)cc1OC (stereo not given)	3%
47	COc1ccc(-c2nc3c4ccccc4n(CC(=O)Nc4ccc(C(C)=O)cc4)c(=O)n3n2)cc1	-6%
48	CCCn1ccc2c(OCC(=O)Nc3ccccc3C(=O)OCC)cccc2c1=O	-2%
49	O=c1oc2ccc3ccccc3c2cc1-c1nnc(Nc2ccc(F)cc2)s1	5%
50	CCN(CC)CCCNC(=O)Cn1c(-c2cccs2)cc2cc(Cl)ccc21	-1%
51	CCOC(=O)c1ccc(NC(=O)CCc2c(C)nc3c(c(C)nn3C)c2C)cc1	-2%
52	CCc1nc(Nc2ccc(F)c(Cl)c2)c2c3c(sc2n1)CCCC3	-2%
53	COc1cc(C(=O)Nc2sc3c(c2C#N)CCCC3)c(Br)c(OC)c1OC	25%
54	Cc1ccc(CNC(=O)c2ccc(-n3c(C)cc4c3CCCC4)cc2)cc1	6%
55	CSc1ccc(CNC(=O)CCn2c(=O)c3cccn3c3ccc(F)cc32)cc1	-5%
56	COc1cc2c(cc1OC)C(c1cc(OC)c(O)c(OC)c1)CC(=O)N2 (stereo not given)	-9%
57	Cc1cc(C)c2c(=O)cc(C(=O)Nc3nc4ccc(F)cc4s3)oc2c1	-3%
58	O=C(Nc1cccc(C(=O)OCc2cc(=O)n3c4c(sc3n2)CCCC4)c1)c1ccccc1	-14%
59	COc1ccc(NC(=O)COCc2cc(-c3cccs3)on2)cc1	-1%
60	Cc1ccc(C(=O)Nc2ccccc2)cc1S(=O)(=O)Nc1ccc(Br)cc1	22%

Numbers 1 to 4 of the list above:
no.	compound	miR-21 FLuc
1	O=C(CSc1nc2ccccc2nc1Cc1ccccc1)N1CCN(c2ccccc2)CC1	-1%
2	CCOc1ccc(OCC)c(NS(=O)(=O)c2cc(Br)cc3c2N(C(C)=O)C(C)C3)c1 (stereo not given)	6%
3	CC(=O)Nc1ccc(NC(=O)CC2Sc3ccccc3NC2=O)cc1 (stereo not given)	-5%
4	Cc1cccc(CNC(=O)Cc2ccc(NC(=O)N3CCCCc4ccccc43)cc2)c1	-1%

Later entries.
cpd	canonical_smiles	miR-21 FLuc
61	CCOc1ccccc1N1CC(c2nc3ccccc3n2CCOc2ccc(C(C)(C)C)cc2)CC1=O (stereo not given)	?
62	CCOc1ccc(NC(=O)CC2C(=O)N(c3ccc(OC)cc3)C(=O)N2C2CCCCC2)cc1 (stereo not given)	3%
63	CC(C)(C)C(=O)NCCc1nc2ccccc2n1CCCCOc1ccccc1	15%
64	Cc1ccc(C)c(N2CCN(C(=O)C3CCCN(S(=O)(=O)c4cccc5nonc45)C3)CC2)c1 (stereo not given)	0%
65	Cc1ccccc1Cn1c(-c2cccs2)nc2ccccc21	-13%
66	O=C(Cn1c(=O)c2sccc2n(CC(=O)Nc2ccc(Cl)cc2Cl)c1=O)NCCc1ccccc1	-7%
67	CC(C)C(=O)NCC(c1ccc2c(c1)OCO2)N1CCN(c2ccccc2F)CC1 (stereo not given)	2%
68	COc1ccc(C2CC(=O)c3cnc4c(-c5ccccc5)c(C)nn4c3C2)cc1OC (stereo not given)	-7%
69	CCOC(=O)c1c(NC(=O)C2c3ccccc3Oc3ccccc32)sc(C)c1C	-15%
70	CCc1cccc(C)c1NC(=O)CCS(=O)(=O)c1cc(Br)cc2c1N(C(=O)C1CC1)CC2	2%
71	CCCCC(=O)Nc1cc(C)c(O)c(-c2nc3ncccc3o2)c1	-6%
72	CCOCCc1nn2c(=O)cc(COC(=O)Cc3ccccc3)nc2s1	-3%
73	CCCCc1ccc(NC(=O)c2cc3c(=O)n4ccccc4nc3n2C)cc1	0%
74	CCn1ccc2cc(S(=O)(=O)N3CCC(C(=O)NCc4cccc(C)c4)CC3)ccc21	5%
75	Cc1nn(-c2ccc(Cl)cc2)c2nc(-c3cccnc3)cc(C(F)(F)F)c12	-1%
76	CCc1ccccc1NC(=O)Cn1c(C(=O)OC)cc2oc(C)cc21	-1%
77	CN1C(=O)Cc2cc(S(=O)(=O)CCC(=O)N3CCN(c4ccc(Cl)cc4)CC3)ccc21	6%
78	Cc1ccc(NC(=O)Nc2nnc(SCC(=O)N(C(C)C)C(C)C)s2)cc1	?
79	CC(=O)N1CCc2cc(Br)cc(S(=O)(=O)N3CCN(c4cccc(C)c4)C(C)C3)c21 (stereo not given)	21%
80	CCc1ccc(Oc2c(C(F)(F)F)oc3c(CN4CCCC(C)C4)c(O)ccc3c2=O)cc1 (stereo not given)	-1%
81	COc1ccc(-c2cccc(NS(=O)(=O)c3cc(C)c(Cl)cc3C)c2)nn1	-7%
82	Cc1cccc(N2CCN(S(=O)(=O)c3nnc(NC(=O)c4ccc(Cl)cc4)s3)CC2)c1	-5%
83	Cc1cc(F)ccc1NC(=O)CN1C(=O)CCc2cc(S(=O)(=O)N3CCOCC3)ccc21	-7%
84	COc1ccc(CN2C(=O)c3oc4ccccc4c(=O)c3C2c2ccc(O)cc2)cc1 (stereo not given)	-2%
85	CN(C(=O)c1nn(C)c2c1COc1ccccc1-2)c1cccc(C(F)(F)F)c1	-2%
86	COCCCn1c(=N)c(C(=O)NC2CCCCC2)cc2c(=O)n3cc(C)ccc3nc21	-2%
87	Cc1cccc(-c2nnc(SCCC(=O)O)o2)c1	?
88	Cn1nc(C(=O)NCCc2ccc(Cl)cc2)c2c1-c1ccccc1SC2	-11%
89	COc1ccc(NC(=O)c2cc(C(C)=O)n3ccccc23)cc1Cl	-28%
90	Cc1cc(O)c(C(c2ccccc2)N2CCN(C)CC2)c(=O)n1Cc1ccco1 (stereo not given)	0%
91	O=C(C1CCC(Cn2c(=O)c3sccc3n(Cc3ccccc3)c2=O)CC1)N1CCCCC1 (stereo not given)	12%
92	CCOC(=O)c1ccc(CN(Cc2ccc(F)cc2)S(=O)(=O)c2ccc(F)c(C(=O)Nc3ccccc3C(F)(F)F)c2)cc1	3%
93	Cc1cc(C)c2c(c1)c(C)cc1nnc(SCC(=O)c3ccccc3)n12	-8%
94	Cc1ccccc1C(=O)Nc1nnc(S(=O)(=O)N(C)Cc2ccc(Cl)cc2)s1	2%
95	CCN(CC)CCCNC(=O)c1ccc2c(c1)sc1nc(-c3ccc(C)cc3)cn12	1%
96	COc1ccc(CCN2C(=O)N(c3ccc(F)cc3)C(=O)C2CC(=O)Nc2ccc(F)c(F)c2)cc1 (stereo not given)	18%

By substructure: those above with a CF3 group (four)
cpd	canonical_smiles	miR-21 FLuc
75	Cc1nn(-c2ccc(Cl)cc2)c2nc(-c3cccnc3)cc(C(F)(F)F)c12	-1%
80	CCc1ccc(Oc2c(C(F)(F)F)oc3c(CN4CCCC(C)C4)c(O)ccc3c2=O)cc1 (stereo not given)	-1%
85	CN(C(=O)c1nn(C)c2c1COc1ccccc1-2)c1cccc(C(F)(F)F)c1	-2%
92	CCOC(=O)c1ccc(CN(Cc2ccc(F)cc2)S(=O)(=O)c2ccc(F)c(C(=O)Nc3ccccc3C(F)(F)F)c2)cc1	3%

Other structures follow.
cpd	canonical_smiles	miR-21 FLuc
97	COc1ccc(OCc2nc(-c3ccc(OC)c(OC)c3)no2)cc1	-1%
98	CCOc1cccc2sc(NC(=O)CS(=O)(=O)c3ccc(C)cc3)nc12	4%
99	Cc1cccc(-n2ccnc2SCC(=O)Nc2ccc(F)cc2F)c1C	11%
100	COc1ccc(-c2nc3c(c(SCC(=O)Nc4ccccc4OC)n2)Cc2cccc(C)c2O3)cc1	0%
101	Cc1ccc(C(=O)COC(=O)c2cc(-c3ccccc3)nc3ccccc23)cc1C	-21%
102	COc1ccc(-c2nc3cc(C)ccn3c2NC(=O)c2ccc(C)c(C)c2)cc1	-7%
103	CCN1CCN(c2c(S(=O)(=O)c3ccc(Cl)cc3)cnc3ccccc23)CC1	5%
104	O=C(Nc1cccc(Cl)c1)c1cc2c(=O)[nH]c3ccccc3c2s1	-25%
105	CCN(C(=O)c1nn(C)c2c1CSc1ccccc1-2)c1cccc(C)c1	7%
106	COc1ccccc1CCNC(=O)c1ccc(NC(=O)N2CC(C)Sc3ccccc32)cc1 (stereo not given)	18%
107	CCc1ccc(NC(=O)CCc2nnc3n(C)c(=O)c4sccc4n23)cc1	0%
108	CCc1nnc(NC(=O)c2cc(=O)c3cc(C)ccc3o2)s1	3%
109	O=C(Cn1cc(S(=O)(=O)Cc2ccccc2Cl)c2ccccc21)NCc1ccccc1Cl	9%
110	CCCN1C(=O)c2[nH]nc(-c3ccccc3O)c2C1c1cccc(OCc2ccccc2)c1 (stereo not given)	?
111	CCCS(=O)(=O)c1nc(S(=O)(=O)c2ccc(C)cc2)c(N(CC)CC)s1	-3%
112	COc1ccc(NC(=O)C2CCN(S(=O)(=O)c3ccc4c(c3)CCCC(=O)N4)CC2)cc1Cl	0%
113	COc1ccc(OC)c(NC(=O)c2ccc(-c3nc(CSc4ccccc4)c(C)o3)cc2)c1	13%
114	Cc1cc(C)cc(-n2c(SCC(=O)Nc3ccc4c(c3)OCCO4)nc3c([nH]c4ccccc43)c2=O)c1	10%

Only part of the results is shown. The share of hits here may be higher or lower than overall.
